# High-throughput results as filed in PubChem BioAssay.
# rRNA inh HTS: inhibits bacterial ribosomal RNA function over humanized ribosomes | AID 720706 | E. coli WT GFP vs humanized-ribosome RFP mutants, fluorescence, 24 h; stronger effect = lower value; DMSO median 0, no signal -100 | GFP signal change (wild-type ribosome), % (concentration not given with the values) | 350,000 compounds, 1.6% hits;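 active means significant combined selectivity score with lowered wild-type GFP, culture density cut under 30%, mutant RFP and density less affected; inactive means any of these conditions unmet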; further: one replicate is shown; some compounds called inactive have numbers as strong as hits
# Beta cell apopt: beta cell apoptosis inhibition; INS-1E cytokine-induced death, ATP luminescence, 48 h; percent of positive-control rescue, neutral wells zero; protection from apoptosis, % (no concentration beside the values); 300,000 compounds, 0.8% hits; AID 435005;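 active means all replicates at 75% or more, or half of them and the mean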;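 further: 0% = cytokine-treated negative control wells and 100% = positive control rescue; higher means more ATP so stronger rescue from cytokine killing; wells of about 40 µL received 100 nL stock; the first replicate is given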
# ALR inh: human ALR oxidase inhibition via reduced H2O2; purified ALR, DTT oxidation, H2O2 HRP-luminol luminescence; inhibition, % (test concentration not listed); 290,000 compounds, 3.8% hits; AID 485317;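 active means mean and each replicate at 75% or more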;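 further: stock transfer was 7.5 nL into about 7.5 µL; 0% = neutral wells and 100% = wells with inactivated enzyme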
# Target sequence (P55789 whole entry, looked up): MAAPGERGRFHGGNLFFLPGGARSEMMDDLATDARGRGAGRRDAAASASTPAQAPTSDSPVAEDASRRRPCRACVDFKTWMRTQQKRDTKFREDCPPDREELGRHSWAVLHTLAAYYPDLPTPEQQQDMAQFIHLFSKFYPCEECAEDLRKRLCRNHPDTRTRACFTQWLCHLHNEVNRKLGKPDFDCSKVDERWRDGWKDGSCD
# T cruzi repl: blocks replication of Trypanosoma cruzi; AID 1885; T. cruzi beta-gal in NIH3T3, luminescence, 90 h; inhibition, % (no concentration beside the values); 300,000 compounds, 1.4% hits;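 active means mean inhibition across valid replicates above about 55%, limit read from the data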;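 further: signal also drops with host cell toxicity which is not excluded here; 0% = plate median of DMSO wells and 100% = zero luminescence signal; higher percent means less beta-gal luminescence so fewer parasites; stock transfer was 50 nL into about 50 µL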
# A1 inh: inhibitors of the anti-apoptotic protein A1, read as caspase activation. MEF A1-2A-BIM cells, Caspase-Glo 3/7 luminescence, 3 h; percent of clofoctol response, vehicle zero. 330,000 compounds, 0.066% hits. AID 2462. caspase activation, % (no concentration beside the values);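 active means over half of replicate activation scores above 10%, or exactly half above 10 with the replicate mean above 10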;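 further: wells of about 30 µL received 50 nL stock; many hits fall short of the cut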
# Calb FLC: affects C. albicans growth with fluconazole. C. albicans CaCi-2 (fluconazole-resistant clinical isolate) + fluconazole, Alamar Blue growth, 48 h. growth inhibition, % (test concentration not listed). 300,000 compounds, 0.57% hits. AID 1979;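 active means most replicates above 75%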;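 further: all wells also contain fluconazole at 8 µg/ml as a sub-toxic cotreatment; 0% = median of DMSO wells and 100% = median of geldanamycin control wells; wells of about 8 µL received 7.5 nL stock; the first replicate is given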
# LANA-H2B inh: blocks KSHV LANA binding to histone H2A/H2B; Q9QR71; cell-free LANA-H2A/H2B peptide, fluorescence polarization; inhibition, % (test concentration not listed); 320,000 compounds, 0.6% hits; AID 2629; in the data active means inhibition mostly above about 10%, no sharp cut-off; inactive means mostly below about 6.7%;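 further: stock transfer was 7.5 nL into about 10 µL; 0% = median of vehicle wells and 100% = median of positive control wells; one replicate is shown; the record names a cut of 25% in any replicate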
# B2AR ag: activates human beta-2 adrenergic receptor causing internalization | P07550 | Am2.2-beta2AR cells, FAP receptor internalization, flow cytometry; reference of the scale not given here | response, % (concentration not given with the values) | 340,000 compounds, 0.43% hits | AID 504454;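 active means response above a set limit, near 3 SD of response in nonfluorescent compounds, cut at about 42% in these data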;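 further: stock transfer was 100 nL into about 11 µL; a reference agonist was the positive control; negative values mostly stem from fluorescent compounds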
# Target sequence (P07550 whole entry, looked up): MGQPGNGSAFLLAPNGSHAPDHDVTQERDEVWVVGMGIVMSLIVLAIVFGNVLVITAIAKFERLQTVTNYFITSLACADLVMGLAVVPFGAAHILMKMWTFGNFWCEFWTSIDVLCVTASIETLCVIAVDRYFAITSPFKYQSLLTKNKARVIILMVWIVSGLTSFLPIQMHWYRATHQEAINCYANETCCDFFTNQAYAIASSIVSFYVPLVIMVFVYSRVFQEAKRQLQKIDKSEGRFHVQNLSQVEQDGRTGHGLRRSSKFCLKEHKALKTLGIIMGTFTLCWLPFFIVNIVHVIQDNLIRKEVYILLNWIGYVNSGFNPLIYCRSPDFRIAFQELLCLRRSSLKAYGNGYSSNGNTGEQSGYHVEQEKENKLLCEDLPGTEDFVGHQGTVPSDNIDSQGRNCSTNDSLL
# rRNA inh HTS OD600: also measured in rRNA inh HTS; calls as there; OD600 change, %; measured here: OD600 growth;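 optical density of the mix in the first replicate; 0 = DMSO median and -100 = no signal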
# rRNA inh HTS RFP: further read-out of rRNA inh HTS, marked with its call; RFP signal change, %; measured here: RFP humanized mutant strains;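 first replicate; 0 = DMSO median and -100 = no signal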
# An asterisk follows results filed as active; / = no result given; & = joins results of further samples. An excerpt; count on the stated rates, not on these rows.
SMILES,rRNA inh HTS,rRNA inh HTS OD600,rRNA inh HTS RFP,Beta cell apopt,ALR inh,T cruzi repl,A1 inh,Calb FLC,LANA-H2B inh,B2AR ag
Cc1ccc(/C=C2\SC(=S)N(CCCC(=O)Nc3cccnc3)C2=O)cc1,/,/,/,/,-31,6,1.0,-3,-1.7,2
CCCn1c(SCC(=O)Nc2ccc(OCC)cc2)nnc1C(C)C,/,/,/,-3,3,-10,-0.4,-24,-4.0,-5
CCSc1nnc2c(n1)OC=Nc1ccc(Br)cc1-2,/,/,/,0,1,-18,0.5,3,1.3,0
CSc1ccccc1NC(=O)COc1ccc(S(=O)(=O)N2CCCC2)cc1,/,/,/,3,-13,5,/,12,-2.2,-11
CC(=O)c1c(C)[nH]c(C(=O)CN2C(=O)NC(C)(C)C2=O)c1C,7,-6,-1.3,-6,0,-1,0.4,5,6.7,-1
COCCn1c(COc2cccc(OC)c2)nnc1SCC(=O)NC1CCCC1,4,1,0.6,0,1,-2,0.1,2,3.3,-5
O=C(CNC(=S)N(Cc1ccccc1)Cc1cccnc1)NCCc1ccccc1,/,/,/,-1,2,47,-0.2,-26,5.2,-5
CC(C)C(=O)c1cn(CC(=O)NCc2ccco2)c2ccccc12,/,/,/,2,-1,8,-2.2,-8,1.9,-3
COc1ccccc1C(=O)NCC(=O)OCC(=O)c1cccc2ccccc12,-1,1,-2.1,-3,24,-6,0.1,-1,-3.3,2
Cc1ccc2c(c1)NC(=O)C(CC(=O)Nc1ccc(Br)c(C)c1)O2 (configuration not stated),25,16,6.4,1,0,1,1.9,-1,-3.6,0
CCN1C(=O)/C(=C/c2ccc(C)o2)N(C)C1=S,5,0,1.0,-2,2,3,-0.5,14,2.8,-25
Cc1ccc(S(=O)(=O)Oc2ccc(C(c3c(C)[nH][nH]c3=O)c3c(C)[nH][nH]c3=O)cc2)cc1,-2,-3,-4.5,4,14,-5,-0.1,-17,3.0,16
Cc1ccccc1CN1CCN(S(C)(=O)=O)CC1,2,7,-3.4,-2,-6,-4,-0.3,9,2.8,3
O=C(Nc1ccncc1)c1cc(-c2cccc(Br)c2)nc2ccccc12,11,7,2.9,33,-9,40,0.4,-9,-8.8,7
CCc1ccccc1NC(=O)c1cc(-c2cccc(O)c2)on1,-2,8,-0.5,-2,/,-13,-0.1,0,2.1,6
Cc1cc(C)c2c(c1)[C@@H]1C=CC[C@@H]1[C@H](c1ccc(S(=O)(=O)N3CCOCC3)cc1)N2,8,36,-8.8,1,/,/,-0.2,/,-0.1,0
CC(=O)N1c2ccc(S(=O)(=O)N3CCCC3C(=O)NCc3ccccc3Cl)cc2CC1C (configuration not stated),-8,-5,-0.7,1,-6,11,-0.6,19,5.0,1
Cc1ccc(C(=O)N(CC(=O)NC2CCCC2)Cc2cccs2)s1,/,/,/,-3,-8,-2,0.5,-18,1.1,3
Cc1ccc(CNC(=O)CSc2nnc3n2CCCCC3)cc1,/,/,/,-1,1,/,0.9,/,3.5,1
COC(=O)C(C)Sc1n[nH]c(=S)s1 (configuration not stated),/,/,/,-4,33,-10,0.5,-7,-7.4,-9
Cc1cc(N2CCCCC2)c(F)cc1[N+](=O)[O-],/,/,/,-5,-3,-1,0.7,-7,1.4,0
CS(=O)(=O)N(CC(=O)NN=C1CCCCCC1)c1ccc(Oc2ccccc2)cc1,0,0,-0.3,-9,-1,1,0.1,-30,2.2,-30
COc1ccc2nc3ccccc3nc2c1NC(=O)c1ccc(Cl)cc1Cl,/,/,/,-3,/,15,1.4,1,8.3,-7
CCCCn1c(N)c(N(CCOC)C(=O)c2ccc3c(c2)C(=O)N(c2cc(C)ccc2C)C3=O)c(=O)[nH]c1=O,5,4,-1.6,-3,-3,-31,0.7,-16,-1.8,3
CC(C)N1CC(C(=O)Nc2ccc(C#N)cc2)CC1=O (configuration not stated),0,9,-0.7,2,-6,-16,-0.5,52,8.6,-3
Cc1nc(NC(C)C)c2oc3ccccc3c2n1,/,/,/,25,1,-10,1.0,2,-0.8,6
COc1cc(NC(=O)c2csc(-c3ccncc3)n2)cc(C(=O)Nc2cccc(C(F)(F)F)c2)c1,10&-1,19&-3,5.1&-0.6,3,3,27,1.2,-9,1.4,60*
COc1ccc(C(=O)Oc2cccnc2)cc1,/,/,/,/,1,-8,0.0,-7,-2.6,1
O=c1c2cc(Cl)ccc2[nH]c(=S)n1Cc1cccs1,/,/,/,6,2,4,-0.4,37,-3.1,-25
COC(=O)n1c(=O)oc2cc(S(=O)(=O)N3CCCCC3)ccc21,/,/,/,-3,33,-20,-0.4,6,2.5,-4
COC(=O)c1cccc(-n2cnnn2)c1,/,/,/,/,/,-7,-0.5,-1,-3.9,2
CCCCNc1c(N)n(CC(C)C)c(=O)[nH]c1=O,7,4,-0.6,2,-1,8,0.3,-13,5.5,-18
COc1ccc(CS(=O)(=O)CC(C)(O)c2ccc(Cl)cc2)cc1 (configuration not stated),4,2,2.1,0,2,-1,0.7,-4,2.6,-1
Cc1cc(Cl)c(S(=O)(=O)NCC2CCCO2)cc1OCC(N)=O (configuration not stated),/,/,/,0,-4,/,1.1,/,-3.9,-6
COC(=O)Nc1ccc(OCc2ccccc2)cc1,0,3,1.2,-4,1,-4,-5.4,-14,-3.4,-8
CCN1CCN(c2nc(-c3ccccn3)nc3ccccc23)CC1,/,/,/,14,-17,35,-0.4,-4,3.2,-7
COc1ccc(C(O)(C(C)C)C(CN2CCOCC2)c2ccccc2)cc1 (configuration not stated),-10,-5,0.7,-3,-3,-14,-0.4,0,5.2,-6
CCC(=O)N1CCN(c2ccc(NC(=O)c3ccco3)cc2)CC1,/,/,/,2,8,-35,0.0,-26,1.0,-15
O=C(Nc1ccccc1N1CCOCC1)c1ccc2c(c1)OCO2,5,-10,1.5,2,-10,1,0.0,-5,0.3,-2
COc1ccc2c(c1)CCc1cc(C(=O)O)sc1-2,-10,-15,8.1,3,-31,3,-0.5,-2,-3.3,8
c1ccc(C2CC(c3ccccc3)C(c3ccccc3)N2)cc1 (configuration not stated),3,6,4.9,3,-1,16,0.3,-66,2.6,5
Cc1noc(C)c1C(=O)NNc1cc(Cl)ccc1Cl,/,/,/,-2,-8,2,-0.1,-1,-2.6,2
O=C1C(=O)N(Cc2ccncc2)C(c2ccccc2F)/C1=C(\O)c1ccc2c(c1)OCCO2 (configuration not stated),0,11,-4.7,-5,31,-4,0.8,-2,7.8,7
CCc1ccc2oc(C(=O)Nc3nonc3CC)c(C)c2c1,0,4,-5.1,/,-2,-21,/,0,/,0
Cc1cc(=O)[nH]c(N/N=C/c2ccccn2)n1,/,/,/,95*,55,35,-1.6,3,1.7,-2
CCOc1ccc(S(=O)(=O)NC(Cc2cnc[nH]2)C(=O)O)cc1 (configuration not stated),16,17,0.0,-4,-4,-16,0.5,-1,4.0,4
CC1=NN(C(=O)c2c(Br)c(C)nn2C)C(O)(C(F)(F)F)C1 (configuration not stated),15,15,13,-7,7,0,1.0,36,-4.2,4
Cc1nc(C)c(-c2csc(Nc3cccnc3)n2)s1,-40,-43,-16,3,89*,34,-0.6,46,-2.2,-23
CCc1cccc2c(C(=O)C(NC(C)CC)c3ccccc3)c[nH]c12 (configuration not stated),-59,-81,-18,/,1,26,0.7,3,-3.8,7
CN1C(=O)C(C)(C)c2cc(S(=O)(=O)N(C)Cc3ccccc3)ccc21,16,20,0.5,-1,-21,-6,-1.0,-6,-1.4,-3
CCOC(=O)N1CCC(N2Cc3cccc(C(=O)NCC4CCN(CC(C)C)C4)c3C2=O)CC1 (configuration not stated),0,12,0.5,-2,-47,/,0.2,/,-1.2,6
O=C(CN1CCCCCC1)NCC1CCCO1 (configuration not stated),14,19,0.2,1,-5,-4,1.0,-9,-2.6,-9
O=C(CN1C(=O)NC2(CCc3ccccc32)C1=O)Nc1ccccc1C(F)(F)F (configuration not stated),-2,0,-2.2,-4,0,/,1.2,/,1.7,-5
O=C(COC(=O)c1ccc(Cl)nc1)NCCc1ccc(F)cc1,-3,-5,-3.8,0,-18,/,-0.1,/,-2.3,7
COc1ccc(Nc2nc(CC(C)=O)ns2)cc1OC,-7,-10,0.1,-6,-13,-38,0.5,-12,3.2,3
CCc1cc(CNC(=O)CC2C(=O)NCCN2Cc2ccccc2C(F)(F)F)on1 (configuration not stated),9,6,1.4,-5,/,-16,0.2,-25,4.2,-5
COc1ccc(C(=O)N/N=C/c2ccc3cccc(O)c3n2)cc1,-24,-32,-4.8,-4,-9,5,-0.4,23,-1.3,1
NC(=O)C1CC12c1ccccc1-c1ccccc12 (configuration not stated),-7,2,-7.7,1,-7,4,0.1,-5,-2.1,-3
O=C(NC(=S)NNC(=O)c1ccc(Cl)cc1Cl)c1cccnc1,/,/,/,-3,/,7,0.9,0,/,5
COc1ccc(OC)c(NC(=S)NCC(c2cccnc2)N2CCOCC2)c1 (configuration not stated),5,9,2.7,-3,-14,-9,-0.5,8,6.3,1
# Continuation.
SMILES,rRNA inh HTS,rRNA inh HTS OD600,rRNA inh HTS RFP,Beta cell apopt,ALR inh,T cruzi repl,A1 inh,Calb FLC,LANA-H2B inh,B2AR ag
CC(=O)NC1CC2CCC(C1)N2Cc1ccc(C)cc1 (configuration not stated),/,/,/,2,-10,9,1.4,-6,3.4,10
Cc1ccc(CCc2nnc(SCC(=O)Nc3cccc(Cl)c3)n2-c2ccccc2)o1,-2,6,-1.0,1,-9,9,2.0,-21,1.5,8
O=C(CN1C(=O)NC2(CCCC2)C1=O)N1CCN(S(=O)(=O)c2cccc(F)c2)CC1,13,3,-0.2,-5,6,-4,-0.1,25,1.9,0
O=C1C=C(Nc2ccccc2)C(=O)c2ccccc21,/,/,/,84*,/,3,-7.1,-2,4.0,-12
CCOC(=O)c1c(NC(=O)Nc2ccccc2)sc(C)c1C,/,/,/,11,-2,19,-0.2,-3,-4.3,-6
Cc1c(CN2CCC(C)CC2)c(=O)n(-c2ccccc2)n1C,/,/,/,-1,-9,4,-0.4,-7,4.4,-1
COC(=O)c1ccc(COc2ccccc2/C=C(\C#N)C(=O)Nc2ccc(C)cc2)cc1,/,/,/,4,-9,19,0.3,-5,-0.5,8
O=[N+]([O-])c1cc(S(=O)(=O)N2CCCC2)ccc1SCCO,11,7,1.8,-1,-15,3,-0.5,5,-5.1,0
CCN(CC)CCNc1nc2c(c(=O)[nH]c(=O)n2C)n1CC(O)COc1ccc(Cl)cc1Cl (configuration not stated),/,/,/,-5,5,-4,-0.5,-2,-0.2,-6
O=C(Nc1nccs1)C1CCN(S(=O)(=O)c2cccs2)CC1,8,1,2.9,-1,-21,-1,0.8,-2,4.5,-3

# Some of the entries above, reformatted.
> COC(=O)c1ccc(COc2ccccc2/C=C(\C#N)C(=O)Nc2ccc(C)cc2)cc1
- rRNA inh HTS = /
- rRNA inh HTS OD600 = /
- rRNA inh HTS RFP = /
- Beta cell apopt = 4
- ALR inh = -9
- T cruzi repl = 19
- A1 inh = 0.3
- Calb FLC = -5
- LANA-H2B inh = -0.5
- B2AR ag = 8

> O=[N+]([O-])c1cc(S(=O)(=O)N2CCCC2)ccc1SCCO
- rRNA inh HTS = 11
- rRNA inh HTS OD600 = 7
- rRNA inh HTS RFP = 1.8
- Beta cell apopt = -1
- ALR inh = -15
- T cruzi repl = 3
- A1 inh = -0.5
- Calb FLC = 5
- LANA-H2B inh = -5.1
- B2AR ag = 0
